2A firefly: FMDV 2A StopGo reporter, firefly signal | hit rate 0.23% among 120,000 | Potency, µM (highest dose often 57.5 µM), for the others: at the highest dose signal change, negative = less light | AID 1745856 | HEK cells with a luciferase reporter of 2A StopGo recoding; active = well fitted falling curve with a large enough effect; inconclusive = small, poorly fitted or top-dose-only effect; inactive = no such curve, though single readings can be large or run the other way; note: nearly all actives have a fitted effect of over 60% in size; overnight with compound
2A Renilla: FMDV 2A StopGo reporter, Renilla signal; Potency, µM (series often up to 57.5 µM), inactives show at the highest dose signal change, negative = less light; HEK cells with a luciferase reporter of 2A StopGo recoding; hit rate 0.32% among 120,000; active means well fitted falling curve with a large enough effect; inconclusive means small, poorly fitted or top-dose-only effect; inactive means no such curve, though single readings can be large or run the other way; note: nearly all actives have a fitted effect of over 55% in size; overnight with compound
Active calls of the source: *; ? = inconclusive; & = joins results of further samples; [ ] = another dose, or the depositor's remark. % is set by controls: 0 for no effect and ±100 for the full control effect; potency is the fitted concentration of half-maximal effect. Not all compounds are listed; rates above refer to the full screens.

SMILES	2A Renilla	2A firefly
COc1ccc(OC)c(NC(=O)Cc2c(C(=O)O)n(C)c3ccc(C)cc23)c1	77.6%[activator]	2.6%
CC(=O)N1CCCc2cc(S(=O)(=O)N3CCC(C(=O)Nc4cccc(Cl)c4C)CC3)ccc21	-6.1%	-10.3%
COc1cccc(NC(=O)CCCn2c(=O)c3cccn3c3cccnc32)c1	-9.0%	-8.2%
C=CCOC(=O)C(C#N)c1nc2ccccc2nc1N1CCCC1 (stereo not given)	22.1%	0.5%
O=C(CC12CC3CC(CC(Br)(C3)C1)C2)NC1CCCC(C(F)(F)F)C1 (stereo not given)	4.4%	?
Cc1ccc(N(C)S(=O)(=O)c2nnc(NC(=O)CC(C)C)s2)cc1	-11.4%	-14.4%
CN(C)c1ccc(C2CC(c3ccccc3)=CC(O)(c3ccccc3)C2C(=O)c2ccccc2)cc1 (stereo not given)	60.6%[activator]	6.4%
CC(Oc1ccc(C(=O)c2ccccc2)cc1)C(=O)N1CCc2ccccc21 (stereo not given)	13.0%	-1.7%
Cc1c2cnn(CC(=O)NCc3ccccc3)c(=O)c2c(C)n1Cc1cccc(Cl)c1	7.5%	21.0%
O=C(Cc1ccc(Br)cc1)N1CCN(c2cccc(Cl)c2)CC1	-2.8%	-3.5%
Cc1ccccc1OCCn1c(CN(C)C(=O)c2ccco2)nc2ccccc21	2.6%	8.4%
CCOC(=O)c1cc(-c2cccs2)nc2c1c(C)nn2-c1ccccc1	-5.1%	0.4%
CCOC(=O)C(C)Oc1ccc2cc(-c3ccc(Cl)cc3)c(=O)oc2c1 (stereo not given)	4.9%	28.3%
CCOCCc1nn2c(=O)cc(COC(=O)c3ccccc3NC(=O)CC(C)C)nc2s1	-5.6%	-12.5%
CCCCOC(=O)CNc1nc(-c2ccccc2)c2cc(C)ccc2n1	-4.7%	-1.3%
Cc1ccccc1S(=O)(=O)Cc1ccc(C(=O)NCc2ccccc2Cl)o1	3.8%	2.8%
O=C(c1ccc2c(c1)N(Cc1ccc(Cl)cc1)C(=O)c1ccccc1S2=O)N1CCCCC1 (stereo not given)	12.5%	6.0%
Cc1cc(Br)ccc1SCC(=O)OCC(=O)Nc1ccccc1OC(F)F	-10.8%	-3.5%
c1ccc2c(CNC34CC5CC(CC(C5)C3)C4)c[nH]c2c1	-15.6%	-16.2%
Cc1ccc(Cl)cc1NC(=O)C(C)N(C)Cc1ccc2c(c1)OCCO2 (stereo not given)	17.1%	9.7%
Cc1ccc(Cn2cc(C(=O)c3ccc4c(c3)OCO4)c(=O)c3cc(C)ccc32)cc1	-5.2%	-25.4%
Cn1c(=O)c2c(-c3ccc(Cl)cc3)n(Cc3ccccc3)cc2n(C)c1=O	5.5%	1.4%
N#Cc1ccccc1Cn1c(=O)n(CCCC(=O)NCc2ccc3c(c2)OCO3)c(=O)c2ccccc21	-2.0%	-12.5%
Cn1c(SCC(=O)Nc2cccc(F)c2)nc2c(=O)[nH]cnc21	8.8%	49.6%[activator]
Cc1ccc(C)c(N2CCN(C(=O)CCc3c(C)nc4c(c3C)c(=O)n(C)c(=O)n4C)CC2)c1	-9.6%	0.5%
CC(C)(C)c1[nH]c2c(F)cc(F)cc2c1C=O	-1.5%	0.0%
CC(C)c1ccc(NC(=O)CCS(=O)(=O)c2cccc3nonc23)cc1	0.0%	17.3%
Cc1cc(C)nc(Sc2ccc(N)cc2)n1	4.1%	25.8%
Cc1cc(C)cc(NC(=O)COC(=O)c2nn(C)c(=O)c3ccccc23)c1	0.1%	1.2%
CC(=O)Nc1ccc(/C(C)=N\OC(C)C(=O)Nc2cccc(C)c2)cc1 (stereo not given)	0.0%	16.4%

Some of these compounds in order of number of heavy atoms, ascending.
SMILES	2A Renilla	2A firefly
Cn1c(SCC(=O)Nc2cccc(F)c2)nc2c(=O)[nH]cnc21	8.8%	49.6%[activator]
C=CCOC(=O)C(C#N)c1nc2ccccc2nc1N1CCCC1 (stereo not given)	22.1%	0.5%
CC(=O)Nc1ccc(/C(C)=N\OC(C)C(=O)Nc2cccc(C)c2)cc1 (stereo not given)	0.0%	16.4%
Cc1ccccc1S(=O)(=O)Cc1ccc(C(=O)NCc2ccccc2Cl)o1	3.8%	2.8%
COc1cccc(NC(=O)CCCn2c(=O)c3cccn3c3cccnc32)c1	-9.0%	-8.2%
CCOCCc1nn2c(=O)cc(COC(=O)c3ccccc3NC(=O)CC(C)C)nc2s1	-5.6%	-12.5%
Cc1ccc(C)c(N2CCN(C(=O)CCc3c(C)nc4c(c3C)c(=O)n(C)c(=O)n4C)CC2)c1	-9.6%	0.5%

Additional records
SMILES	2A Renilla	2A firefly
CCOc1ccc(NC(=O)C(C)Nc2ccc3oc(C)nc3c2)cc1 (stereo not given)	38.7%[activator]	26.5%
CCOC(=O)C1=C(CNCc2ccccc2)NC(=O)NC1c1ccccc1 (stereo not given)	-11.8%	-3.0%
C/C(=N/OCc1ccc(C(N)=O)cc1)c1cc2ccccc2o1	-0.2%[1.06 µM]	15.9%
O=C(NCC(O)c1ccc(F)c(F)c1)c1ccc(=O)[nH]c1 (stereo not given)	-3.6%	7.2%
COc1ccc(C(CC(=O)Nc2ccc(C)cn2)N2Cc3ccccc3C2=O)cc1OC (stereo not given)	111.8%[activator]	-2.9%
CCC(=O)Oc1ccc2oc(-c3ccc(OC)cc3)cc(=O)c2c1	44.2%[activator]	182.8%[activator]
CSCCC(NC(=O)c1ccc2ccccc2n1)C(=O)NC(C)C (stereo not given)	21.7%	-5.5%
Cc1ccc2c(CSc3nnc(NC4CC4)s3)cc(=O)oc2c1	0.0%	70.2%[activator]
CC(NCCc1ccccc1)C(C)C(c1ccccc1)c1ccccc1 (stereo not given)	?	?
CCCn1c2ccccc2c2cnn(CC(=O)N3CCN(c4ccccc4)CC3)c(=O)c21	-14.6%	-20.2%
O=S(=O)(c1ccc(-c2cc(C(F)(F)F)on2)s1)N1CCN(c2cccc(Cl)c2)CC1	-13.1%	20.3%
CC(=O)Oc1ccc2c(=O)c(-c3nc4ccccc4s3)c(C)oc2c1	-1.6%	118.3%[activator]
CCc1ccccc1NC(=O)Cn1nnc(C(=O)Nc2ccc(OC)c(OC)c2)c1N	2.4%	-10.5%
CC[C@@H](C)[C@H](NC(=O)[C@H](C)n1nnc2ccccc2c1=O)C(=O)O	10.2%	24.9%
O=C(NC12CC3CC(CC(C3)C1)C2)C1CCN(S(=O)(=O)Cc2ccc(F)cc2)CC1	-5.5%	-6.4%
CC(=O)N1CCc2c(sc3c2c(=O)n(-c2ccccc2C)c(=O)n3CC(=O)c2ccccc2)C1	20.2%	0.0%
Cc1ccc(Nc2nc(N)c(C(=O)c3ccccc3Cl)s2)c(C)c1	6.5%	65.3%[activator]
CC(=O)N1CCN(c2ccc(NC(=O)COc3ccc(Cl)cc3C)cc2Cl)CC1	3.6%	10.1%
Cc1sc2c(c1C)C(c1ccc(F)cc1)=NCC(=O)N2CC(=O)Nc1ccc(F)cc1F	203.0%[activator]	-3.3%
CN1CCOC(CNCc2cnc(C(C)(C)C)s2)C1 (stereo not given)	-7.4%[1.06 µM]	1.3%
CC(=O)Nc1cccc(NC(=O)CSc2cn(CC(=O)N3CCOCC3)c3ccccc23)c1	14.6%	44.3%
CCCN(CCC)S(=O)(=O)NCc1ccnc(OCc2ccccc2)c1	26.2%	-0.5%
O=c1c2ccccc2c(-c2ccccc2)nn1Cc1nc(-c2ccc(Br)cc2)no1	-2.3%	15.0%
CC(C)c1ccc(NC(=O)C2CCN(S(=O)(=O)c3ccc(Br)s3)CC2)cc1	-8.5%	3.4%
CCOc1cc(C)ccc1OCc1nnc(SCC(=O)NC2CCCCC2)n1C	4.3%	7.8%
C=CCC(CC=C)(CNC(=O)C(=O)Nc1cccc(C(F)(F)F)c1)c1ccccc1	-5.8%	-4.1%
Cc1nc2cc(F)ccc2cc1C(=O)N1CCN(c2ccccc2)CC1	-24.3%	-16.4%
Cc1[nH]c2ccccc2c1SCCNC(=O)c1ccc(F)cc1	-2.5%	-15.3%
Cc1cc(C)cc(NC(=O)CCC(=O)N2Cc3ccccc3Oc3ncccc32)c1	-6.0%	20.8%
COC(=O)c1sc(=S)n(-c2cc(C)cc(C)c2)c1N	12.6%	6.7%
COC(=O)c1ccccc1NC(=O)c1sc2nc(C)cc(C)c2c1NC(=O)c1ccccc1Cl	-8.4%	-8.3%
CC1CCc2noc(NC(=O)c3cc(=O)c4cc(Br)ccc4o3)c2C1 (stereo not given)	4.0%	-10.3%
COc1ccc(-c2nc3cc(NC(=O)COc4ccc(F)cc4)ccc3o2)cc1	11.5%	119.3%[activator]
COc1ccc(-c2nc(SCC(=O)Nc3ccccc3)c(-c3ccc(F)cc3)[nH]2)cc1OC	21.9%	-1.6%
Cc1ccc(-n2nnnc2CNC(=O)c2ccccc2F)cc1C	4.0%	-8.2%
COCCn1c(SCc2nc(-c3ccc(Br)cc3)no2)nc2ccsc2c1=O	-27.2%	-24.0%
Cc1cc2oc(=O)cc(CN(CC(C)C)CC(C)C)c2cc1O	?	?
O=C(O)CC(C(=O)O)c1c[nH]c2ccccc12 (stereo not given)	-1.1%	-6.3%
O=C(O)c1ccc2oc(-c3cccc(Cl)c3)nc2c1	69.5%[activator]	-64.3%
CCCC(=O)NC(C)c1nc2ccccc2n1Cc1ccccc1 (stereo not given)	-3.8%	-11.6%
Cc1ccc(S(=O)(=O)N2CCC(C(=O)OC(C)C(=O)N3CCCCCC3)CC2)cc1 (stereo not given)	-3.0%	-10.2%
O=[N+]([O-])c1ccc(N2CCN(c3ccccc3)CC2)c2ccncc12	-11.7%	4.3%
Cc1ccc(C)c(Cn2c(C)c(CNCc3ccc(F)cc3)c(C(=O)O)c2C)c1	104.2%[activator]	-20.5%
N#Cc1nc(COc2ccccc2)oc1NCCCN1CCOCC1	-8.3%	56.5%[activator]
COC(=O)c1ccc(C2C(c3ccc(C)cc3)=C(O)C(=O)N2CCc2ccc(OC)c(OC)c2)cc1 (stereo not given)	0.0%	7.8%
Cc1nc(CN2CCN(C(=O)NCc3ccccn3)CC2)cs1	-6.9%	0.3%
Cc1ccsc1C(=O)N(CC#N)C1CC1	0.3%	-7.3%
CC(O)CNc1nc(-c2cccnc2)nc2ccccc12 (stereo not given)	7.7%	6.7%
CCC(=O)Nc1ccc2oc(-c3cccc(C)c3)nc2c1	11.6%	71.3%[activator]
COc1cccc(-n2nc(C(=O)Nc3cc(OC)c(OC)c(OC)c3)c3ccccc3c2=O)c1	53.7%[activator]	0.0%

More results:
SMILES	2A Renilla	2A firefly
N#Cc1c(N2CCN(C(=O)C(=O)NCCO)CC2)nc(-c2ccccc2)c2c1CCCC2	-10.9%	-19.4%
O=C(CC1CC2CCC1C2)NCc1cccnc1 (stereo not given)	17.2%	0.0%
COc1cccc(NC(=O)CSC2=Nc3ccccc3C3=NC(CC(=O)NCCc4ccccc4)C(=O)N23)c1 (stereo not given)	22.7%	-3.7%
CN(C(=O)CN1CCN(Cc2ccc(C#N)cc2)CC1)c1ccccc1C(=O)NCc1ccco1	0.4%	-0.6%
CN(C)S(=O)(=O)c1ccc2c(c1)nnn2CCNC(=O)Nc1ccc(Cl)cc1	49.9%[activator]	-7.2%
COCCN(CCOC)c1ncnc2c1c(-c1ccccc1)cn2-c1cccc(C)c1	4.9%	2.8%
Cc1ccc(CN(C(=O)c2ccccc2Br)C2CCS(=O)(=O)C2)o1 (stereo not given)	-10.3%	9.4%
C/C(=N\NC(=S)Nc1ccc(C)cc1)c1ccc([N+](=O)[O-])cc1	29.0%	0.0%
Cc1ccc2c(Cl)cc(Cl)c(OCC(=O)N(C(C)C)C(C)C)c2n1	-14.1%	-15.9%
Cc1[nH]c2ccccc2c1C(=O)C(C)Sc1nnc(C2CC2)o1 (stereo not given)	44.8%[activator]	-3.0%

Profiles from above. Order of values: 2A Renilla, 2A firefly
CN(C)S(=O)(=O)c1ccc2c(c1)nnn2CCNC(=O)Nc1ccc(Cl)cc1 reads 49.9%[activator], -7.2%
COCCN(CCOC)c1ncnc2c1c(-c1ccccc1)cn2-c1cccc(C)c1 reads 4.9%, 2.8%

(list continues)
SMILES	2A Renilla	2A firefly
CCCOc1ccc2c(c1)sc1ncc(NC(=O)c3ccccc3C)c(=O)n12	-4.1%	-6.3%
Cc1ccc(S(=O)(=O)c2cn(Cc3ccc(F)cc3)c3cc(F)c(F)cc3c2=O)cc1	-3.1%	-2.8%
CCCNC(=O)C1Cc2cc(S(=O)(=O)N3CCCCCC3)ccc2N1C(C)=O (stereo not given)	8.7%	-6.8%
CCCN(Cc1ccccc1)C(=O)c1ccc(CNC(N)=O)cc1	9.1%	-5.9%
CCCS(=O)(=O)N1CC(=O)N(c2cccc(Cl)c2)C(C)(C(=O)NC2CCCCC2)C1 (stereo not given)	-6.7%	0.0%
O=C1CSc2ccc(C(=O)Nc3ccccc3)cc2N1	5.3%	170.8%[activator]
COC(=O)c1cc2n(n1)CC(C)(C(=O)NC1CCC(C)CC1)N(CCc1cccs1)C2=O (stereo not given)	21.2%	-2.0%
CC1=C(c2ccc(C)c(C)c2)S(=O)(=O)N(Cc2ccc(C(=O)NC(C)c3ccccc3)cc2)C1=O (stereo not given)	-10.7%&5.8%	-9.5%&-17.8%
COc1ccc(-c2coc3cc(OCC(=O)NC(C)c4ccccc4)ccc3c2=O)cc1OC (stereo not given)	-0.8%	-7.0%
CC(=O)N1CCCc2cc(S(=O)(=O)N3CCCC(C(=O)Nc4cc(Cl)ccc4C)C3)ccc21 (stereo not given)	40.6%[activator]	-18.9%

From PubChem BioAssay
